Screening data (PubChem)
miR-21 reporter: qHTS Assay for Modulators of miRNAs and/orActivators of miR-21; HeLa miR-21 FLuc reporter, luciferase, 48 h; Potency, µM (top dose mostly 38.3 µM), inactives show at the top dose reporter change, positive = more light; 340,000 tested, under 10 active; active = well fitted rising curve with a large enough effect; inconclusive = small, poorly fitted or top-dose-only effect; inactive = no such curve, though single readings can be large or run the other way;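 also: % of control where 0% means no effect; miR-21 action dims this reporter so a rising signal means less miR-21 action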
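Using DMEM plus 10% FBS, HeLa miR-21-FLuc cells are incubated with test compounds (final up to about 40uM) for 48 hours; firefly luciferase signal is then imaged following reagent-mediated lysis.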
GLA inh pH 4.5: qHTS Assay for Inhibitors of Human alpha-Galactosidase at pH 4.5; Alpha-galactosidase A (Homo sapiens), P06280; purified enzyme, 4-MU-alpha-Gal fluorescence, pH 4.5; activity change, negative = inhibition, % at 105 µM; 230,000 tested, under 10 active; AID 1467, 2008; inconclusive = small, poorly fitted or top-dose-only inhibition, or a rising curve; inactive = flat fitted curve, though single readings scatter; no compound was filed as active;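 also: 0% = full activity with enzyme and -100% = basal without enzyme; dose as in the result columns while the protocol names 77 µM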
Target sequence (P06280 whole entry, looked up): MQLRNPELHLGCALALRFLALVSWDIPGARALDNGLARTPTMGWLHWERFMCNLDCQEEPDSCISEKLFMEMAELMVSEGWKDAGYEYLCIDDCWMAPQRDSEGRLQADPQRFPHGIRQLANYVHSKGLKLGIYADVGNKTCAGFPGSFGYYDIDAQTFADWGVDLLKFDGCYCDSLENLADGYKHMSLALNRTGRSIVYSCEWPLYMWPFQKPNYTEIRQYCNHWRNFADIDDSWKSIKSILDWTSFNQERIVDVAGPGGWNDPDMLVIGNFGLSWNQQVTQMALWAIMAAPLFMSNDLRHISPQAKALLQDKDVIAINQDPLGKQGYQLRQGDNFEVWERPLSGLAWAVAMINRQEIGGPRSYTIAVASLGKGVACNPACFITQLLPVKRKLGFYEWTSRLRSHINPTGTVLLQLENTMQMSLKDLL
Rango dissoc inh: qHTS Assay for Inhibitors of RanGTP induced Rango (Ran-regulated importin-beta cargo) - Importin beta complex dissociation; Snurportin-1 (Homo sapiens) + GTP-binding nuclear protein Ran (Homo sapiens) + Importin …; Biochemical FRET Rango-importin beta, RanGTP-induced dissociation; Potency, µM (top dose mostly 46.1 µM), inactives show at the highest dose activity change, negative = inhibition; hit rate 0.071% among 340,000; active means falling FRET ratio curve, often poorly fitted, with flat reads before Ran was added; inconclusive means other falling curves, or compound fluorescence or quenching; inactive means flat or rising ratio curve;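 also: potency is read from the fitted curve at half-maximal effect; % of control where 0% means no effect; nearly all actives have a fitted effect of over 45% in size; -100% = wells without RanGTP and RCC1; the record marks most hits as doubtful in a second field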
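Compounds preincubate 5 min with complex of recombinant Rango and importin beta in PBS with 1 mM DTT. Ran (0.6 uM) loaded with 2 mM GTP plus 0.2 uM RCC1 starts dissociation; FRET is recorded 45 min later.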
Rango-impB inh: qHTS Assay for Inhibitors of Rango (Ran-regulated importin-beta cargo) - Importin beta complex formation; Potency, µM (top dose mostly 92.2 µM), inactives show at the top dose inhibition of complex formation; Rango CFP/YFP FRET sensor + importin beta, 45 min; Importin subunit beta-1 (Homo sapiens), Q14974; AID 540263, 2011; hit rate 0.031% among 340,000; active = rising FRET ratio curve, often small or poorly fitted; inconclusive = mostly compound fluorescence or quenching in the first reads; inactive = flat curves in all reads;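 also: potency is read from the fitted curve at half-maximal effect; 0% = DMSO wells and 100% = buffer wells lacking importin beta; nearly all actives have a fitted effect of over 15% in size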
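FRET biosensor (snurportin 1 IBB flanked by EYFP and cerulean), 50 nM, with compound 5 min, then 0.125 microM importin beta in PBS, 1 mM DTT, 0.02% Tween-20, 0.1% BSA. CFP/YFP ratio read after 45 min at room temperature; pre-read flags interference.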
Starred values were filed as active, the others as inactive; ? = inconclusive; nt = no result given; & = joins results of further samples; [ ] = remark or other dose.

miR-21 reporter | GLA inh pH 4.5 | Rango dissoc inh | Rango-impB inh | Compound
-11% | 0 | 4% | 1.7% | Cc1oc(-c2ccccc2)[n+]([O-])c1C
-1% | -6 | 11% | 0.8% | O=C(N/N=C/c1ccc(Br)o1)/C(=C/c1ccc([N+](=O)[O-])cc1)NC(=O)c1ccccc1
2% | 0 | 30% | -5.0% | NS(=O)(=O)c1ccc(NC(=O)COC(=O)c2ccc(Cl)cc2[N+](=O)[O-])cc1
-1% | 3 | 7% | 5.3% | COC(=O)NC1(C(F)(F)F)C(=O)Nc2c1c(=O)n(C)c(=O)n2C (centres undefined)
-9% | 2 | -12% | 0.1% | O=C(CCNS(=O)(=O)c1c(Cl)cccc1Cl)OCC(=O)c1ccccc1F
-10% | -2 | 19% | -3.2% | O=C(CN1CCCCCC1)Nc1cccc(Br)c1
nt | nt | -5% | -1.2% | O=C(Nc1ccc(Cl)c(Cl)c1)c1ccccc1
-29% | 0 | 15% | 1.0% | Cc1cc(N/N=C2/CCCc3ccccc32)nc2ccccc12
2% | nt | 2% | 0.1% | CC1CCCN(CCCNC(=O)c2nn(C)c3c2CSc2ccccc2-3)C1 (centres undefined)
-3% | 2[21.1 µM] | 10% | -1.6% | CN1CCN(C(=O)c2ccc(N(C)S(=O)(=O)c3cccs3)cc2)CC1
nt | nt | -12% | 1.6% | CN(CC(=O)Nc1ccc(N2CCOCC2)cc1)C(=O)CCNC(=O)c1ccccc1Cl
-3% | 3 | -8% | 0.2% | COC(=O)C(CCSC)NC(=O)c1cc2c(n(-c3ccc(C)cc3)c1=O)CCCC2=O (centres undefined)
-9% | 5 | 1% | 0.2% | CCOC(=O)C1CCN(CC(=O)c2c(C)[nH]c3cc(C)ccc23)CC1
26% | -9 | -9% | -1.2% | CC(=O)/C(C#N)=C1\NC(=O)C(Cc2ccccc2C)S1 (centres undefined)
-20% | 5 | -5% | -2.2% | CC(C)C(=O)Nc1nnc(Cc2ccccc2)s1
nt | nt | -6% | -2.0% | Cc1c(C(=O)Nc2nnc(C3CC3)s2)oc2c(Cl)cccc12
-2% | -7 | 6% | -2.7% | Cc1ccc(NC(=O)c2cccc3c2-c2ccccc2C3=O)cc1C
nt | nt | -9% | -2.2% | O=C(COC(=O)COc1ccccc1)Nc1cccnc1Cl
nt | nt | -12% | 2.4% | CCN(CC)CCSc1nc2c([nH]1)c(=S)n(C)c(=O)n2C
-9% | 6 | 5% | -2.1% | Cc1cc(NS(=O)(=O)c2ccc(NC(=O)c3cc4ccccc4o3)cc2)nc(C)n1
-6% | -6 | 1% | 2.9% | CCn1cc(SCC(=O)NCc2ccc3c(c2)OCO3)c2ccccc21
-6% | 14 | 0% | -0.5% | CCOc1ccc(C(=O)N2CCCN(C(=O)c3ccc(OCC)cc3)CC2)cc1
0% | nt | 5% | 7.0% | COc1ccccc1NC(=O)Cc1nnc(SCC(=O)NC2=NCCS2)n1C
-1% | 3 | 8% | -8.4% | CCOc1ccc(C2NC(=O)c3sc(=S)n(-c4ccccc4)c3N2)cc1 (centres undefined)
-1% | -8 | 5% | -5.9% | O=C(NC(=S)Nn1cnc2c(cnn2-c2ccccc2)c1=O)c1ccc(Oc2ccccc2)cc1
-26% | -9 | ? | 0.9% | CCOc1ccc(NC(=O)c2ccncc2)cc1
1% | -3 | ? | ? | COC(=O)CN1C(=O)N/C(=C/c2cc3c(cc2OC)OCO3)C1=O
-21% | -4 | -11% | 6.2% | C=CCOc1c2ccc(C(=O)NCc3ccccc3OC)cc2nn1C
0% | nt | 1% | -1.9% | CCn1c(CN2CCOCC2)nnc1SCC(=O)Nc1ccccc1C
-10% | -5 | 3% | -1.5% | CCCCC(=O)N(CCOC)c1nnc(-c2cccnc2)s1

Remaining list, next part:
miR-21 reporter | GLA inh pH 4.5 | Rango dissoc inh | Rango-impB inh | Compound
-2% | -7 | 1% | 0.3% | CCOc1ccc(-n2c(=O)c3ccccc3c3ccccc3c2=O)cc1
0% | nt | ? | ? | COc1cc(/C=C/C(=O)c2ccc3c(c2)OCO3)cc(Cl)c1O
-1% | 0 | 1% | -2.8% | COc1ccc(CNC(=O)COC(=O)/C=C/c2cccc(Br)c2)cc1
-1% | nt | -4% | 2.0% | O=C(COc1ccc2ccccc2c1)NNC(=O)Nc1ccc(F)cc1F
-64% | -2 | -13% | -1.4% | COc1ccc(-n2nc([N+](=O)[O-])c(=NCc3cccnc3)n2O)cc1
0% | nt | -6% | -3.6% | Cc1c(CC(=O)NCCCC(=O)O)c(=O)oc2cc3oc4c(c3cc12)CCCC4
nt | nt | -14% | 0.7% | CCOC(=O)C1=C(COC(=O)/C=C/c2ccc(SC)cc2)NC(=O)NC1C (centres undefined)
nt | nt | -17% | 3.0% | COc1ccc(Cc2nnc(SCC(=O)N(C)CC(=O)Nc3ccc(C)cc3)o2)cc1
-4% | 7 | -9% | -5.1% | O=C(NCc1cccnc1)c1cccc(-c2cc3ccccc3oc2=O)c1
-18% | -7&3&-5&2 | 8% | 0.2% | Cc1[nH]c(=O)c(C#N)cc1-c1ccncc1
-2% | 4 | -19% | -0.9% | Cc1ccn2c(CNCCn3cccn3)c(C(=O)N3CCCCCC3)nc2c1
nt | nt | 20% | -0.5% | Cc1ccc(-c2nn(-c3ccc(F)cc3)cc2C(=O)N2CCN(C3CCS(=O)(=O)C3)CC2)cc1 (centres undefined)
13% | 0 | 31% | -0.1% | Cn1c(=O)c([N+](=O)[O-])c(Cl)c2ccccc21
-4% | 15 | -18% | -1.4% | CC(=O)n1cc(Nc2ccccc2C(=O)O)c2ccccc21
-5% | 9 | 21% | -1.2% | CC(C)(C)NC(=O)C(=O)NNC(=O)c1ccco1
-2% | -7[21.1 µM] | -13% | 11% | COc1ccc(NC(=S)N(Cc2ccc(C(=O)O)cc2)Cc2ccc(OC)c(OC)c2)cc1
-23% | -6 | -4% | -1.7% | O=C(N/N=C/c1cccs1)c1ccccn1
-4% | -1 | 6% | -0.3% | COc1ccc(C)cc1NC(=O)Nc1cccc(C(=O)O)c1
6% | nt | 4% | 0.6% | CC(=O)N1CCc2c(sc(NC(=O)Cc3ccc(F)cc3)c2C#N)C1
-12% | 7 | 10% | 1.5% | CC(C)(C)NC(=O)CSc1nc(O)cc(=O)n1-c1ccccc1F
4% | -9 | -28% | ? | CCOc1cc(/C=C2\C(=O)N(c3cccc(C(F)(F)F)c3)C(=O)c3ccccc32)ccc1O
5% | -8 | -7% | -1.6% | O=C(C1CCCC1)N1CCN=C1SCc1cccc([N+](=O)[O-])c1
-14% | nt | -3% | 2.1% | O=C(CCNC(=O)c1ccco1)NCCc1ccc(Cl)cc1
0% | -12 | nt | nt | CN1C(=O)/C(=C/c2cn(CC(=O)NCc3ccco3)c3ccccc23)NC1=S
5% | -7 | -12% | -0.5% | COc1cc(OC)cc(C(=O)N[C@H](C(=O)Nc2nc3ccc(S(C)(=O)=O)cc3s2)C(C)C)c1
-1% | 0 | 20% | 2.0% | O=C(NC1CCCCC1)N(Cc1nc2ccccc2c(=O)[nH]1)C1CCCC1
-4% | 0 | -6% | -0.5% | COc1ccc(C2=[N+]([O-])C(C)(C)N(O)C2C)cc1 (centres undefined)
-9% | -9 | -14% | -3.7% | Cc1csc(NC(=O)COCC(=O)O)c1-c1nc2ccccc2s1
nt | nt | -8% | -2.1% | O=C(NCCN1C(=O)S/C(=C\c2ccc(OC(F)F)cc2)C1=O)C1=COCCO1
-66% | nt | -9% | -0.1% | Cc1nc(Cl)cc(N/N=C/c2ccc(O)cc2)n1

Reformatted as a markdown table: four of the compounds above
| canonical_smiles | miR-21 reporter | GLA inh pH 4.5 | Rango dissoc inh | Rango-impB inh |
| --- | --- | --- | --- | --- |
| COc1cc(/C=C/C(=O)c2ccc3c(c2)OCO3)cc(Cl)c1O | 0% | nt | ? | ? |
| COc1ccc(CNC(=O)COC(=O)/C=C/c2cccc(Br)c2)cc1 | -1% | 0 | 1% | -2.8% |
| O=C(COc1ccc2ccccc2c1)NNC(=O)Nc1ccc(F)cc1F | -1% | nt | -4% | 2.0% |
| COc1ccc(-n2nc([N+](=O)[O-])c(=NCc3cccnc3)n2O)cc1 | -64% | -2 | -13% | -1.4% |

(further entries)
miR-21 reporter | GLA inh pH 4.5 | Rango dissoc inh | Rango-impB inh | Compound
6% | -7 | 25% | -0.9% | Cc1ccccc1CSc1nnc(CCCCCNC(=O)OC(C)(C)C)o1
nt | nt | 23% | -1.3% | C=CCC[C@@H](Cc1ccc(F)cc1)C(=O)OC[C@@H](NC(=O)[C@H](CC=C)CC(=O)NCCO)C(C)(C)C
-69% | 4 | 12% | 0.5% | COc1ccc(/C=C/c2nc3ccccc3n2Cc2ccc(OC)c(OC)c2)cc1
-4% | -14 | -11% | 0.4% | Cc1ccc(CNC(=O)CN(C)S(=O)(=O)c2cccc3nsnc23)cc1
3% | 2 | 0% | -0.9% | O=C(CSc1nnnn1C1CCCCC1)Nc1ccccc1N1CCOCC1
-1% | 6 | 2% | 6.9% | O=C(CC12CC3CC(CC(C3)C1)C2)N1CCCC1
-14% | 8 | 20% | -0.5% | Cc1c(N=C2C=C(Br)C(=O)C(Br)=C2)c(=O)n(-c2ccccc2)n1C
2% | 0 | -16% | ? | Cc1ccc(O)c(C(=O)c2coc(=N)c(C(=O)NC(C)C)c2)c1
-1% | 2 | 4% | -1.9% | Cc1ccc(S(=O)(=O)NNC(=S)NCCc2ccccc2)cc1
-6% | -5 | 13% | 0.9% | COC(=O)c1cnc2c(C(F)(F)F)cccc2c1OC
4% | nt | 5% | 0.7% | COc1cc(Br)c(CN2C(=O)NC3(CCCCCC3)C2=O)cc1OC
2% | nt | -8% | -2.1% | COC(=O)C1CCN(C(=O)C2CCC(=O)N(CCCc3ccccc3)C2)CC1 (centres undefined)
nt | nt | 2% | 0.3% | CC(=NNc1ccc2ccccc2n1)c1ccccc1O
2% | nt | -9% | -0.1% | O=C(CN(Cc1ccccc1Cl)S(=O)(=O)c1ccc(Cl)cc1)N/N=C/c1ccc(C(=O)O)cc1
9% | -1 | 21% | 6.8% | Cc1ccc(-n2ncc3c(SCc4ccccn4)ncnc32)c(C)c1
17% | -1 | -11% | -0.2% | C=CCCC(=O)Nc1nc(C)c(-c2csc(Nc3cccc(OC)c3)n2)s1
nt | nt | -11% | 5.0% | CC(C)(C)C(=O)Nc1ccc(C(=O)COC(=O)C2=COCCO2)cc1
-2% | -5 | 0% | 7.8% | Cc1cc(Cl)c(S(=O)(=O)Nc2ccc3c(c2)OCO3)cc1OCC(=O)NC1CCCCC1
nt | nt | -18% | 0.5% | CC1CCCCC1NC(=O)COC(=O)/C=C/c1ccco1 (centres undefined)
-2% | 3 | 10% | 10% | O=C1CCCC2=C1Sc1ccccc1N2
-7% | -2 | -9% | -2.9% | CCOP(=O)(OCC)C(Nc1ccccc1)c1ccc2c(c1)OCO2 (centres undefined)
0% | 6 | 11% | -1.7% | CCOC(=O)c1ccc(CNC(=O)CCC(=O)O)cc1
-1% | nt | ? | ? | COC(=O)COc1ccc2c(c1C)O/C(=C\c1ccco1)C2=O
-1% | 5 | -12% | -1.5% | CC1(C)CC(=O)C=C(NNC(=O)OC(C)(C)C)C1
-4% | 0 | 13% | 3.1% | c1cn(-c2ccc(-c3ccnc4ncnn34)cc2)cn1
-21% | 1 | 18% | -0.3% | CCC(CC)c1nnc(NC(=O)/C=C/c2ccco2)s1
-5% | 10 | 3% | 0.1% | CCCCC(=O)NC(=S)Nc1cc(C(=O)O)ccc1OC
7% | 12 | -16% | 1.7% | COc1ccc(CCNC(=O)c2ccc3ccccc3n2)cc1OC
-1% | 2 | 9% | -0.1% | CCc1nnc(NC(=O)c2nc3nccc(C)n3n2)s1

These rows are one share of the data; count on the stated rates, not on these rows.
